Assay outcomes as filed in PubChem.
RanGTP-Imp inh: disruptors of Ran-importin-beta complex formation – biochemical, FRET, CFP-Ran, YFP-importin-beta, homogeneous, primary screen; AID 2216; actives 1.1% (n = 300,000); cell-free CFP-Ran/YFP-importin-beta FRET ratio; inhibition, % (no concentration beside the values);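 active means most replicates above 15%; inconclusive means exactly half above 15%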;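 further: 0% = DMSO wells and 100% = Ran loaded with GDP instead of GTP; wells of about 40 µL received 100 nL stock; the first replicate is given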
Beta2AR agonist: activates human beta-2 adrenergic receptor causing internalization. actives 0.43% (n = 340,000). response, % (test concentration not listed). Am2.2-beta2AR cells, FAP receptor internalization, flow cytometry; reference of the scale not given here. P07550. AID 504454;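 active means response above a set limit, near 3 SD of response in nonfluorescent compounds, cut at about 42% in these data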;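 further: stock transfer was 100 nL into about 11 µL; a reference agonist was the positive control; negative values mostly stem from fluorescent compounds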
Target sequence (P07550 whole entry, looked up): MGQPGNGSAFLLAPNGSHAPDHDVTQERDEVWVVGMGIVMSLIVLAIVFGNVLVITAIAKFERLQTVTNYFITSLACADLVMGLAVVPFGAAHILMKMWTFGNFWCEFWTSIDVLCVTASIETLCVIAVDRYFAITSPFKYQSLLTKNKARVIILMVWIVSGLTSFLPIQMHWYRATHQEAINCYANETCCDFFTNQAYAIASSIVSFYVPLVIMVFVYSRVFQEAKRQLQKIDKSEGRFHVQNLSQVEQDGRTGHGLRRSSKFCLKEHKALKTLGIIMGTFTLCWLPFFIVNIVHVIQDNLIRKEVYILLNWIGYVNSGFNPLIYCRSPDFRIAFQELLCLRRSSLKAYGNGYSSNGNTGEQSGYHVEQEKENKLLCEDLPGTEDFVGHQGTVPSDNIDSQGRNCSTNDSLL
HNF4A DNA FP: change in binding of human HNF4 alpha to DNA; HNF4a-FITC DNA binding, fluorescence polarization, 1 h; activity change, % at 10 µM; actives 0.3% (n = 360,000); AID 1224865; in the data active means activity change above about 30%, passing the limit was not always enough;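 further: controls were the assay level and a saturating level of protein; the project sought stronger binding though the title names inhibitors; some compounds called inactive have numbers as strong as hits; positive values seem to mean higher polarization but the record does not say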
Target sequence (P41235 whole entry, looked up): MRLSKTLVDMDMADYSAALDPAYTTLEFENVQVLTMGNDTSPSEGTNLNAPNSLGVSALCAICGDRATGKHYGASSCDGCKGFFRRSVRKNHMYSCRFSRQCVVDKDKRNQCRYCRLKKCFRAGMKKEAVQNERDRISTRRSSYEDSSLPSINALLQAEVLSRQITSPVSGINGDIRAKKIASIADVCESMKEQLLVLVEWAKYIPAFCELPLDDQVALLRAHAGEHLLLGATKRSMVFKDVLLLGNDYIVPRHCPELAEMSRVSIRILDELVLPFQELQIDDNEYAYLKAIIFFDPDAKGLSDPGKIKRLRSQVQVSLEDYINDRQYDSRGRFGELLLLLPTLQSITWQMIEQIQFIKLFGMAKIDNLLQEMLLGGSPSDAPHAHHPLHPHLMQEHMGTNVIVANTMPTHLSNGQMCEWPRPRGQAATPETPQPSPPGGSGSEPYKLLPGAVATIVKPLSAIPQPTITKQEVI
Calb FLC: affects C. albicans growth with fluconazole; AID 1979; growth inhibition, % (test concentration not listed); C. albicans CaCi-2 (fluconazole-resistant clinical isolate) + fluconazole, Alamar Blue growth, 48 h; actives 0.57% (n = 300,000);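 active means most replicates above 75%; inconclusive means exactly half above 75%; inactive means most below 75%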;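 further: all wells also contain fluconazole at 8 µg/ml as a sub-toxic cotreatment; 0% = median of DMSO wells and 100% = median of geldanamycin control wells; wells of about 8 µL received 7.5 nL stock; the first replicate is given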
Vif A3G: HIV-1 Vif–A3G interaction blockers – biochemical, TR-FRET, GST-Vif 1-94, biotin-A3G peptide, dose response retest, primary screen (AID 1117319); TR-FRET GST-Vif / biotin-A3G peptide binding; higher % means a stronger effect; test concentration not given here; strong numbers were not always called active; inhibition, %, or IC50 in µM where a hit was titrated; actives 0.57% (n = 260,000);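 active means above the screen mean plus three standard deviations and confirmed in dose response; inconclusive means results disagree or hit not tested in dose response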;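 further: Vif residues 1-94 fused to GST binding biotinylated APOBEC3G peptide 110-148; 0% = full assay without inhibitor and 100% = GST in place of GST-Vif; retest series ran down from 100 µM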
LANA-H2B inh: blocks KSHV LANA binding to histone H2A/H2B | Q9QR71 | cell-free LANA-H2A/H2B peptide, fluorescence polarization | inhibition, % (no concentration beside the values) | actives 0.6% (n = 320,000); in the data active means inhibition mostly above about 10%, no sharp cut-off; inactive means mostly below about 6.7%;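 further: stock transfer was 7.5 nL into about 10 µL; 0% = median of vehicle wells and 100% = median of positive control wells; one replicate is shown; the record names a cut of 25% in any replicate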
ALR H2O2 inh: human ALR oxidase inhibition via reduced H2O2. P55789. actives 3.8% (n = 290,000). purified ALR, DTT oxidation, H2O2 HRP-luminol luminescence. inhibition, % (test concentration not listed);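 active means mean and each replicate at 75% or more; inconclusive means only one of the two met; inactive means neither met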;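 further: stock transfer was 7.5 nL into about 7.5 µL; 0% = neutral wells and 100% = wells with inactivated enzyme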
Target sequence (P55789 whole entry, looked up): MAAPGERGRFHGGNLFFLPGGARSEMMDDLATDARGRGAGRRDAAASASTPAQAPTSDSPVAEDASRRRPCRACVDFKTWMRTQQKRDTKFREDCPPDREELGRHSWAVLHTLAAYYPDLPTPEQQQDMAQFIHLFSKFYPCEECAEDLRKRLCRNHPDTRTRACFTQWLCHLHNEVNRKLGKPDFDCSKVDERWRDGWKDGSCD
* = called active by the depositor; ? = inconclusive; . = not tested or not shown; & = joins results of further samples.

cpd	SMILES	RanGTP-Imp inh	Beta2AR agonist	HNF4A DNA FP	Calb FLC	Vif A3G	LANA-H2B inh	ALR H2O2 inh
1	Cc1ccc(CSCC(=O)NCc2ccc3c(c2)OCO3)cc1	5.0	0	-3.0	5	14%	-1.0	-6
2	Cc1cc(NC(=O)CSc2ccc3nnc(-c4ccc(F)cc4)n3n2)no1	-3.0	-12	-2.0	-2	8%	6.6	-8
3	CCOC(=O)C1(Cc2ccccc2C)CCCN(C(=O)CCc2cccnc2)C1 (stereo not given)	4.2	-15	-0.8	0	11%	-4.3	.
4	CCOC(=O)CSc1n[nH]c(NC(=O)c2ccc(F)cc2)n1	1.6	6	-4.5	1	5%	-1.2	2
5	CCC(=O)Nc1nnc(-c2cccs2)s1	0.7	-10	-1.9	-14	30%	0.6	-7
6	COc1cccc(CC(=O)OCC(=O)N(C)CC(=O)Nc2ccccc2Cl)c1	.	8	0.1	.	-2%	.	-1
7	Cc1ccc(NS(=O)(=O)c2ccc(C(=O)N3CCCC(C(F)(F)F)C3)cc2)cc1 (stereo not given)	0.9	-2	-2.9	0	-7%	6.3	-14
8	CC(Oc1ccc2c(-c3ccccc3)cc(=O)oc2c1)C(=O)NCCCN1CCOCC1 (stereo not given)	3.3	-14	-1.5	13	.	-4.6	-1
9	COc1ccccc1NC(=O)c1ccc(NC(=O)CN(C)Cc2ccccc2F)cc1	-3.2	-4	-0.9	9	5%	5.8	.
10	Cc1cccc(N2CCN(C(=O)CCn3c(=O)[nH]c4ccccc4c3=O)CC2)c1C	5.1	-14	-1.8	17	1%	-2.7	-3
11	O=C(NCc1ccccc1)C(=O)Nc1nc(C23CC4CC(CC(C4)C2)C3)cs1	1.1	8	-1.5	13	.	.	.
12	COc1ccc(C(=O)NC(=S)NNC(=O)c2ccccc2O)cc1	2.8	8	-0.5	36	15%	-1.7	-14
13	O=[N+]([O-])c1ccc(/C=N/Nc2ccc3ccccc3c2)o1	-2.9	-20	9.7	?	3%	-0.4	67
14	Cc1ccc2c(CN(C)Cc3cccc(F)c3)cc(=O)oc2c1C	1.3	9	0.4	-2	3%	-8.8	1
15	COCCSc1ccccc1C(=O)Nc1ccccc1C(C)C	3.7	-3	4.0	19	.	-1.4	.
16	NS(=O)(=O)c1ccc(NC(=O)COC(=O)C2(c3ccccc3F)CCCC2)cc1	5.5	6	6.3	-4	19%	-0.5	1
17	CCN(CCCNC(=O)C1CCC(=O)N1Cc1ccc(C)cc1)c1cccc(C)c1 (stereo not given)	4.8	6	1.9	-1	?	-0.3	99*
18	O=C(NNC(=O)c1ccc(Cl)cc1Cl)c1ccc2ccccc2c1	.	2	-0.4	.	-2%	.	.
19	Cc1cc(C)nc(Nc2nc3ccccc3s2)n1	-2.5	0	4.7	5	.	0.5	-23
20	COc1cccc(NC(=O)c2cnc[nH]2)c1	1.1	3	2.7	-3	.	0.9	-23
21	CCN1CCN(c2ccc(NC(=O)c3ccc([N+](=O)[O-])o3)cc2Cl)CC1	2.1	63*	2.9	?	.	.	.
22	CC1S/C(=N/N=C2CCCCC2)NC1=O (stereo not given)	8.0	-3	-0.7	-7	0%	-3.8	6
23	CCCn1nnc(NC(=O)c2cc(Br)cc(Br)c2OC)n1	-1.7	-10	-2.0	3	1%	9.4	-2
24	Nc1nc(SCC(=O)Nc2ncc(Cl)cc2Cl)n[nH]1	.	3	-7.8	.	.	-6.2	0
25	CN(CC(=O)N1CCOCC1)S(=O)(=O)c1ccc2ccccc2c1	-2.1	-10	-2.6	-4	.	-1.7	-3
26	CCCn1c(=O)c2[nH]cnc2n(-c2ccccc2C)c1=O	-0.2	-8	-0.5	-6	.	-0.9	-18
27	N/C(=N\OC(=O)c1ccc(Cl)c(Cl)c1)c1ccccn1	?	-4	-1.6	26	-4%	0.5	-5
28	CCn1cc(C(=O)NCC(C)C)c(=O)c2cc(F)c(N3CCN(C(=O)c4ccco4)CC3)cc21	0.3	1	-2.2	-13	.	5.6	0
29	CCOC(=O)C1CCCN(C2CC(=O)N(c3ccc(NC(C)=O)cc3)C2=O)C1 (stereo not given)	-7.2	3	5.7	-2	.	1.2	0
30	COc1ccccc1NC(=O)c1cc2cc(Br)ccc2cc1O	0.0	30	-3.2	0	-16%	-2.4	6
31	Cc1ccc2c(c1)C(O)(c1c(C)[nH]c3ccccc13)C(=O)N2 (stereo not given)	-0.4	-6	3.1	10	-6%&1%	4.5	-19
32	COC(=O)CNc1n[nH]c(=S)[nH]c1=O	-1.2	10	-2.9	1	-34%	2.2	-3
33	CC(C)(C)OC(=O)NCCc1n[nH]c(=S)o1	1.5	4	1.1	6	2%	-0.3	35
34	Cc1noc(C)c1S(=O)(=O)N(C)C[C@H]1Oc2ccc(NC(=O)Cc3ccccc3)cc2C(=O)N([C@H](C)CO)C[C@@H]1C	.	5	1.5	.	.	-1.4	-2
35	Cc1sc2nnn(CC(=O)N3CCN(C(=O)c4ccco4)CC3)c(=O)c2c1C	2.6	-6	2.4	-2	1%	1.4	2
36	COC(=O)c1ccccc1NC(=O)Cn1cnc2ccc(S(=O)(=O)N3CCC(C)CC3)cc2c1=O	1.2	-11	4.6	1	5%	-4.3	1
37	COc1ccc(-c2cc3ccc(OCC(C)=O)cc3oc2=O)cc1	2.4	4	-7.2	1	.	-0.4	0
38	O=C(CCNC(=O)c1ccc(Br)cc1)NCc1ccccc1F	3.8	-10	-1.1	.	-8%	-10	2
39	Cc1ccc(S(=O)(=O)N(C)C)cc1NC(=O)COC(=O)c1ccc2c(c1)OCCO2	3.2	-16	0.9	-25	6%	0.0	-13
40	C=CCN(C(=O)CN1CCOCC1)c1nc(C)c(-c2ccccc2)s1	3.3	-6	-2.5	-4	25%	-3.5	13
41	COc1ccc(CCNC(=O)c2cnccn2)cc1	1.7	-8	5.2	1	0%	0.2	-43
42	COc1cc(NC(=O)SC2=NCCS2)cc(OC)c1	.	10	-2.8	.	2%	.	.
43	COc1ccc(C(=O)O/N=C2\C(=O)N(C)c3ccccc32)cc1	0.3	6	-0.9	-11	.	4.2	62
44	O=c1c2ccccc2nnn1CSc1ccccc1	1.3	-2	0.3	2	14%	3.7	22
45	COc1ccc(-c2csc3[nH]c(=S)n(-c4ccccc4)c(=O)c23)cc1OC	2.5	7	-4.6	4	13%	6.9	83*
46	CC(C)c1ccc(CC(NC(=O)c2ccccc2)C(=O)NCC(=O)O)cc1 (stereo not given)	14	11	0.2	1	-5%	-6.1	-11
47	Cc1ccccc1NCC(=O)c1ccc(Br)cc1	2.2	8	0.1	1	2%	-0.8	-2
48	C#CCOCCOCCOCCNc1nc(N2CCN(C(=O)C(Cc3ccc(O)cc3)n3cc(C(N)CC(C)C)nn3)CC2)nc(N2CCN(C(=O)C(Cc3cc4ccccc4[nH]3)n3cc(C(N)C(C)CC)nn3)CC2)n1 (stereo not given)	4.1	.	.	-4	-5%	1.5	-35
49	CCOc1ccc(S(=O)(=O)Nc2nc3ccccc3nc2N2CCN(C)CC2)cc1	0.4	4	0.2	-3	?	-0.7	6
50	Cc1nc2ccc(NC(=O)Cc3ccc4c(c3)OCCO4)cc2s1	-0.3	-3	3.1	3	22%	0.6	-10

An excerpt from above in order of molar mass, rising.
cpd	SMILES	RanGTP-Imp inh	Beta2AR agonist	HNF4A DNA FP	Calb FLC	Vif A3G	LANA-H2B inh	ALR H2O2 inh
47	Cc1ccccc1NCC(=O)c1ccc(Br)cc1	2.2	8	0.1	1	2%	-0.8	-2
43	COc1ccc(C(=O)O/N=C2\C(=O)N(C)c3ccccc32)cc1	0.3	6	-0.9	-11	.	4.2	62
50	Cc1nc2ccc(NC(=O)Cc3ccc4c(c3)OCCO4)cc2s1	-0.3	-3	3.1	3	22%	0.6	-10
45	COc1ccc(-c2csc3[nH]c(=S)n(-c4ccccc4)c(=O)c23)cc1OC	2.5	7	-4.6	4	13%	6.9	83*

Later entries.
cpd	SMILES	RanGTP-Imp inh	Beta2AR agonist	HNF4A DNA FP	Calb FLC	Vif A3G	LANA-H2B inh	ALR H2O2 inh
51	NC(=O)NCc1ccc(F)cc1	-0.7	0	-2.3	-5	-8%	7.0	3
52	CCOc1ccc(-n2cnnn2)cc1S(=O)(=O)Nc1c(C)cccc1C	3.0	-8	1.7	6	-2%	-1.5	-2
53	COc1ccc(S(=O)(=O)N2CCCOC2CNC(=O)C(=O)NC2CCCC2)cc1 (stereo not given)	2.7	4	0.0	4	.	2.6	-2
54	CC(=O)Nc1ccc(S(=O)(=O)NCC(=O)NC(C)c2ccc(S(N)(=O)=O)cc2)cc1 (stereo not given)	2.7	4	-1.6	1	.	-4.0	-14
55	O=C(CN1C(=O)COc2ccc(S(=O)(=O)N3CCCCC3)cc21)NCc1ccc(F)cc1	51*	5	3.6	0	1%	-4.0	-7
56	CCCN(C(=O)CCl)C1=CCCCC1	-3.2	4	2.5	-3	4%	-0.3	-14
57	CCN(CC)CCN(C(=O)c1ccc2c(c1)CCCC2)c1nc2c(C)cccc2s1	-2.7	3	-2.6	0	-8%	4.1	-13
58	CCOC(=O)c1ccc(Oc2nc(NC)nc(Nc3ccccc3)n2)cc1	-1.0	-2	1.5	22	3%	2.2	-11
59	Cc1occc1C(=O)NNC(=O)NC12CC3CC(CC(C3)C1)C2	4.3	-8	1.7	1	-3%	-1.8	6
60	C/C(=N\OC(=O)c1ccccc1)c1cc(-c2ccc(Cl)cc2)no1	5.2	1	11	7	?	-2.6	.
61	c1ccc(Cn2nnc3c(NCCN4CCOCC4)ncnc32)cc1	3.0	2	-0.6	-12	16%	-12	-2
62	COc1cc(/C=C2\SC(=S)N(CC(=O)NC(C)(C)C)C2=O)cc(OC)c1OC	-2.2	2	5.3	11	.	.	.
63	COc1cc2c(cc1OC)CN(C(=O)c1ccc([N+](=O)[O-])o1)CC2	-0.4	0	0.1	19	?	6.8	.
64	O=C(O)c1c2c(nc3ccc(S(=O)(=O)N4CCC(C(=O)NC5CCCCCC5)CC4)cc13)CCCC2	2.1	0	-8.3	-5	2%	-1.7	.
65	COc1ccc(-n2cnnc2SCC(=O)N(C)c2ccccc2)cc1	0.3	-12	3.9	-4	.	1.0	-1
66	CC1(C)OC(C(N)=O)C(C(N)=O)O1 (stereo not given)	1.2	5	-0.8	9	-8%	2.8	-2
67	COc1cc(/C=N/NC(=O)c2ccncc2)ccc1OC(C)=O	-4.8	-1	-0.9	-9	-3%	-1.6	27
68	CCS(=O)(=O)c1nc(S(=O)(=O)c2ccc(Cl)cc2)c(NCCN2CCOCC2)s1	-7.9	-11	-2.7	-23	1%	-3.3	-1
69	O=C(N/N=C/c1cc([N+](=O)[O-])ccc1N1CCNCC1)c1ccc([N+](=O)[O-])cc1	-1.0	32	1.9	11	5%	1.2	-22
70	Cc1ccc(S(=O)(=O)N(C)CC(=O)Nc2cccc3c2CCCC3)cc1	3.2	-5	-1.7	10	-15%	0.8	-3
71	COC(=O)c1ccc(NC(=O)COC(=O)C2CC(=O)N(Cc3ccccc3)C2)cc1 (stereo not given)	1.6	5	-2.9	-7	7%	-5.7	-4
72	COc1ccccc1CNC(=O)[C@@H]1CCCN1S(=O)(=O)c1ccc(Cl)cc1	-2.3	-3	2.2	3	.	-4.9	0
73	CCOc1ccc(-c2nnc(-c3ccccc3)o2)cc1	-2.4	-1	-0.3	-15	1%	-4.3	-2
74	O=S(=O)(N(Cc1ccccc1)[C@@H](CO)Cc1ccccc1)N(Cc1ccccc1)[C@@H](CO)Cc1ccccc1	.	-11	13	.	.	4.4	1
75	O=C(NCc1cccnc1)c1ccc([N+](=O)[O-])cc1	6.0	1	4.9	-7	2%	4.2	-10
